From PubChem BioAssay
Rango-impB inh = prevents formation of the Rango-importin beta complex | Potency, µM (doses to about 92.2 µM), for inactives: at the top dose inhibition of complex formation | Rango CFP/YFP FRET sensor + importin beta, 45 min | 340,000 tested, 0.031% active | Q14974; active = rising FRET ratio curve, often small or poorly fitted; inconclusive = mostly compound fluorescence or quenching in the first reads; inactive = flat curves in all reads;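 also: potency is read from the fitted curve at half-maximal effect; 0% = DMSO wells and 100% = buffer wells lacking importin beta; nearly all actives have a fitted effect of over 15% in size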
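Inhibition scored from the CFP 486 nm/YFP 530 nm FRET ratio 45 min after adding 0.125 microM importin beta to 50 nM Rango biosensor preincubated 5 min with compound (room temperature, PBS with DTT, Tween-20, BSA). No-importin wells as positive control.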
GLA inh pH 4.5 = alpha-galactosidase A (human) inhibition, pH 4.5; activity change, negative = inhibition, % at 105 µM; 230,000 tested, under 10 active; P06280; purified enzyme, 4-MU-alpha-Gal fluorescence, pH 4.5; inconclusive = small, poorly fitted or top-dose-only inhibition, or a rising curve; inactive = flat fitted curve, though single readings scatter; no compound was filed as active;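 also: 0% = full activity with enzyme and -100% = basal without enzyme; dose as in the result columns while the protocol names 77 µM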
Target sequence (P06280 whole entry, looked up): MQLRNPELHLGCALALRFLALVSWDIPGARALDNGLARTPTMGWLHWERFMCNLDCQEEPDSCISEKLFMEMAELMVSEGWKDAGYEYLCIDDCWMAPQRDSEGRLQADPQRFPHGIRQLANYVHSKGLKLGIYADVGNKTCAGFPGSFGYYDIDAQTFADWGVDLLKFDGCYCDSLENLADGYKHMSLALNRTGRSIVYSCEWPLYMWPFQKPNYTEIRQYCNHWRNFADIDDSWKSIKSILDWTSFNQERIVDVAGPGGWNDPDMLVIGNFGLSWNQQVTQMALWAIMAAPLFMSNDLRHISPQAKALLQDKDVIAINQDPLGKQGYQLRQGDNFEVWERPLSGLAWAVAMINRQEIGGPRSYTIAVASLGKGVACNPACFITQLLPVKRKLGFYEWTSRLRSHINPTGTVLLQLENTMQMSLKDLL
Rango dissoc inh = inhibitors of RanGTP-induced Rango-importin beta complex dissociation | Biochemical FRET Rango-importin beta, RanGTP-induced dissociation | Potency, µM (series often up to 46.1 µM), inactives show at the highest dose activity change, negative = inhibition | 340,000 tested, 0.071% active | AID 540253 | O95149+P62826; active means falling FRET ratio curve, often poorly fitted, with flat reads before Ran was added; inconclusive means other falling curves, or compound fluorescence or quenching; inactive means flat or rising ratio curve;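 also: potency is read from the fitted curve at half-maximal effect; % of control where 0% means no effect; nearly all actives have a fitted effect of over 45% in size; -100% = wells without RanGTP and RCC1; the record marks most hits as doubtful in a second field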
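Compounds preincubate 5 min with complex of recombinant Rango and importin beta in PBS with 1 mM DTT. Ran (0.6 uM) loaded with 2 mM GTP plus 0.2 uM RCC1 starts dissociation; FRET is recorded 45 min later.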
miR-21 FLuc = miR-21 reporter, rising signal | HeLa miR-21 FLuc reporter, luciferase, 48 h | Potency, µM (titrated, usually from 38.3 µM), without a hit: top-dose reporter change, positive = more light | 340,000 tested, under 10 active; active = well fitted rising curve with a large enough effect; inconclusive = small, poorly fitted or top-dose-only effect; inactive = no such curve, though single readings can be large or run the other way;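 also: % of control where 0% means no effect; miR-21 action dims this reporter so a rising signal means less miR-21 action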
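Luminescence from a firefly luciferase reporter carrying a miR-21 binding site downstream, stably expressed under a CMV promoter in HeLa cells that make miR-21 endogenously, reports miRNA modulation after 48 h compound exposure up to approximately 40uM final.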
The depositor's hits bear a star; ? = inconclusive; . = not tested or not shown; & = joins results of further samples. A portion of the library. The share of hits here may be higher or lower than overall.

Order of values: Rango-impB inh	GLA inh pH 4.5	Rango dissoc inh	miR-21 FLuc
[1] CCN(Cc1ccncc1)Cc1c(O)ccc2cc(Br)ccc12
 : ?	-0.1	2.0%	-0.4%
[2] Cc1cc(C)c(NC(=O)Nc2ccccc2)c(Cl)c1
 : -3.6%	4.0	1.2%	-22.7%
[3] Cc1ccnc(NS(=O)(=O)c2ccc(C(C)(C)C)cc2)c1
 : .	6.7	.	-0.7%
[4] C[C@@H]1O[C@@H](OC[C@H]2O[C@@H](Oc3cc(O)c4c(=O)cc(-c5ccc(O)c(O)c5)oc4c3)[C@H](O)[C@@H](O)[C@@H]2O)[C@H](O)[C@H](O)[C@H]1O
 : 2.6%	.	8.0%	.
[5] FC(F)(F)c1cc(C(F)(F)F)c2ccc(N3CCN(c4ncccn4)CC3)nc2n1
 : -0.4%	-1.7	?	-2.1%
[6] COc1cc(/C=N/NC(=O)c2nnn(-c3nonc3N)c2C(C)C)ccc1OCc1ccc(F)cc1
 : -0.3%	.	-11.8%	0.8%
[7] CNc1nc(N)nc(-c2cc(Cl)ccc2OC)n1
 : 0.3%	1.4	0.6%	-2.8%
[8] CCOC(=O)c1sc(N(C)C)nc1-c1ccccc1
 : -0.9%	-4.1	25.4%	-10.6%
[9] O=C(O)CCc1ccccc1OC(=O)c1ccccc1
 : -0.1%	-2.0	-9.0%	2.8%
[10] O=C(NCCCn1ccnc1)c1cc(-c2cccc(O)c2)on1
 : 0.3%	5.6	18.1%	-45.8%
[11] CN(CC1CCCO1)S(=O)(=O)c1ccc(C(=O)Nc2nc(-c3ccccn3)cs2)cc1 (stereo not given)
 : 0.4%	-9.6	1.7%	11.0%
[12] Cc1cc(C)nc(NC(=O)CCCC(=O)O)c1
 : 4.1%	-25.0	0.5%	-4.8%
[13] Cc1ccccc1NC(=O)c1ocnc1C
 : -2.3%	-3.5	-3.2%	-12.3%
[14] O=C(Nc1cccc(Br)c1)/C(=C\c1cccnc1)NC(=O)c1ccco1
 : 0.1%	-17.6	5.0%	-10.8%
[15] COc1ccc(NC(=O)c2cccnc2)c(OC)c1
 : 4.3%	3.5	7.4%	-5.9%
[16] Cc1cc2ncc(-c3ncc(C(F)(F)F)cc3Cl)cn2n1
 : ?	2.0	11.6%	23.3%
[17] CN(c1ccccc1)S(=O)(=O)c1cc(C(=O)Nc2ccccc2N2CCOCC2)ccc1Cl
 : 0.5%	.	1.5%	.
[18] O=C(O)C1CCCN1C(=O)c1cncc(Br)c1 (stereo not given)
 : -2.6%	2.1	-11.3%	-5.2%
[19] Cc1cc(C)c(C)c(S(=O)(=O)NC(C)C(=O)O)c1C (stereo not given)
 : 4.5%	-10.9	22.7%	-1.7%
[20] Cc1ccc(C(c2cc(Cl)c3cccnc3c2O)N2CCN(C)CC2)cc1 (stereo not given)
 : 3.4%	.	1.3%	?
[21] CCOc1ccc(NC(=O)c2c[nH]n3c(=O)cc(C4CCN(C(=O)OC(C)(C)C)CC4)nc23)cc1
 : 4.1%	-6.3	5.8%	-7.1%
[22] COC(=O)c1ccccc1NC(=S)NC(=O)CC(C)C
 : -1.2%	5.2	-2.1%	-10.6%
[23] CC(=O)c1ccc(N2CCc3ccccc3C2)c([N+](=O)[O-])c1
 : -10.4%	-11.4	11.2%	-60.3%
[24] CCOC=C1C(=O)N(C(C)=O)c2cc(OC)c(OC)cc21
 : -1.3%	.	0.3%	.
[25] COCCCNC(=O)c1sc2ncnc(N3CCc4ccccc4C3)c2c1C
 : -0.2%	1.1	0.0%	-18.7%
[26] O=C(Cn1ncc(N2CCCC2)c(Br)c1=O)c1ccc(Cl)cc1
 : 0.1%	-17.0	2.7%	-43.5%
[27] O=C(Cc1cccs1)NNC(=S)NC(=O)c1ccco1
 : -4.7%	-0.2	1.8%	5.8%
[28] O=C(NNC(=O)C1CCN(C(=O)Nc2ccccc2)CC1)c1ccc(F)cc1
 : -0.3%	.	8.0%	.
[29] CN(C)S(=O)(=O)c1ccc(N2CCCC2)c(C(=O)Nc2nc(-c3cc(F)ccc3F)cs2)c1
 : -0.7%	7.0	3.7%	3.5%
[30] COc1ccccc1OCC(=O)Nc1ccccc1C(=O)N1CCCC1
 : 0.4%	.	-5.6%	-2.0%
[31] c1ccc(C[n+]2csc3ccccc32)cc1
 : 3.4%	-7.7	-0.8%	-4.2%
[32] C(=N\N=C\c1cccs1)/c1cccs1
 : 1.4%	-2.8	-6.3%	-70.8%
[33] COc1cccc(C2c3c(oc4ccc(F)cc4c3=O)C(=O)N2CCCN2CCOCC2)c1 (stereo not given)
 : -2.4%	-2.0	-21.4%	-21.7%
[34] S=c1[nH]nc(-c2ccco2)n1/N=C/c1ccc(Br)s1
 : 4.1%	8.3	-2.5%	-0.1%
[35] CCOC(=O)C1CCCN(C(=O)c2cc(-c3ccco3)nc3ccccc23)C1 (stereo not given)
 : ?	.	-12.0%	.
[36] COCCN(CCOC)C(=O)N1CCOCC1
 : 0.2%	2.4	6.0%	-0.2%
[37] COc1ccc2oc(C(=O)OCC(=O)NC3CCCC3)c(C)c2c1
 : 0.3%	.	13.5%	-19.8%
[38] CCCCc1ccc(NC(=O)COCC)cc1
 : -1.1%	2.0	-17.2%	-34.3%
[39] CCc1ccccc1N1CC(C(=O)Nc2cc(S(=O)(=O)N3CCCC3)ccc2Cl)CC1=O (stereo not given)
 : -0.9%	.	-14.5%	.
[40] CN(CC(=O)Nc1ccccc1C(F)(F)F)C(=O)CSc1nc(N)cc(N)n1
 : -2.0%	.	-0.4%	.
[41] Cc1ccsc1C(=O)NC(C)c1ccc2c(c1)OCO2 (stereo not given)
 : -6.4%	1.0	-2.6%	-9.2%
[42] NC(=O)C1CCCN(C(=O)c2cccc(S(=O)(=O)N3CCCCCC3)c2)C1 (stereo not given)
 : -4.2%	.	-7.9%	.
[43] O=C(O)C(S)C(S)C(=O)O (stereo not given)
 : -4.4%	.	7.7%	.
[44] CN1CCN(C(=O)c2ccc(Cn3cc(Cl)cn3)o2)CC1
 : 2.0%	.	-12.3%	-4.1%
[45] O=C(COC(=O)c1n[nH]c(=O)c2ccccc12)NCc1ccccc1
 : 1.9%	.	0.0%	.
[46] C=CCn1c(SCC(=O)c2[nH]c(C)c(C(=O)OC)c2C)nc2scc(-c3ccc(OC)c(OC)c3)c2c1=O
 : -0.1%	-4.6	0.0%	-0.5%
[47] CC(C)(O)C#Cc1ccc(CN2CCN(Cc3ccsc3)C(CCO)C2)s1 (stereo not given)
 : -2.3%	1.4	3.2%	-3.6%
[48] O=C(O)CCCC(=O)Nc1cccc2cccnc12
 : -1.8%	-2.2	1.3%	-1.2%
[49] O=C(CN(Cc1ccco1)C(=O)CNS(=O)(=O)c1ccc(Cl)cc1)NCc1ccc(F)cc1
 : 5.8%	.	-2.6%	.
[50] CCOC(=O)N1CCN(S(=O)(=O)c2cc([N+](=O)[O-])c(C)cc2C)CC1
 : 3.9%	6.5	-5.6%	2.2%
[51] CCc1ccc(C(=O)NNc2ccc(S(N)(=O)=O)cc2)cc1
 : 10.0%	-4.5	9.1%	-19.6%
[52] C=CCNC(=S)NN=C1CCC(c2ccccc2)CC1 (stereo not given)
 : -1.6%	.	-2.4%	-2.6%
[53] CC1(C)C2CCC(C2)C1(C)N=C1OC(CCl)CS1 (stereo not given)
 : 0.1%	-6.8	16.1%	8.0%
[54] COc1ccc(-n2ncc3c2CC(C)(C)CC3NC(=O)c2c(C)cc(=O)oc2C)cc1 (stereo not given)
 : 4.4%	.	1.0%	-1.1%
[55] CCOC(=O)COc1ccccc1C(=O)c1cnn(-c2ccccc2)c1
 : -2.0%	.	2.6%	-50.0%
[56] CCOC(=O)C(NS(=O)(=O)c1ccccc1)(C(F)(F)F)P(=O)(OC(C)C)OC(C)C (stereo not given)
 : 0.8%	1.6	4.3%	-3.0%
[57] CC(C)(C)NC(=O)Cn1nnc(-c2ccc(S(C)(=O)=O)cc2)n1
 : 7.8%	-8.3	2.6%	-0.4%
[58] O=C1/C(=C/C=C/c2ccco2)SC(=S)N1c1ccc(O)cc1
 : -4.0%	-1.6	-1.6%	-11.1%
[59] COc1ccccc1N(C)S(=O)(=O)c1ccc(Cl)c(C(=O)NCCCN2CCOCC2)c1
 : -2.0%	.	1.8%	-0.3%
[60] CCCN(CC(=O)Nc1ccccc1C)C(=O)c1ccc(NC2CC2)c([N+](=O)[O-])c1
 : 0.9%	.	11.1%	.

Going on with the list:
Order of values: Rango-impB inh	GLA inh pH 4.5	Rango dissoc inh	miR-21 FLuc
[61] Cc1ccc(C2C(C#N)=C(N)Oc3c2sc2ccccc32)o1 (stereo not given)
 : .	-4.0	.	-12.4%
[62] C/C(Cl)=C/Cn1c(N2CCCC2)nc2c1c(=O)n(C)c(=O)n2C
 : 1.3%	2.7	25.5%	-2.8%
[63] Cc1ccc(C)c(C2=NNC(=O)CC2)c1
 : 0.0%	.	-5.5%	.
[64] COc1cccc(N=Nc2ccc3ccccc3c2O)c1
 : -0.6%	.	-18.4%	-58.7%
[65] O=C(NS(=O)(=O)NC1CCCCC1)C1=C(N2CCCC2)COC1=O
 : 3.4%	.	16.5%	.
[66] Cc1cccn2cc(COc3cccc([N+](=O)[O-])c3)nc12
 : -0.7%	2.1	12.3%	-58.2%
[67] O=[N+]([O-])c1ccc(/C=C/c2ccc3cccc([N+](=O)[O-])c3n2)cc1
 : -0.6%	-17.0	4.1%	-25.7%
[68] CCOC(=O)c1[nH]c(CO)c(C(=O)OCC)c1C
 : -4.4%	-13.2	-1.7%	-8.6%
[69] CCN(CC)c1ccc(O)c(C=Nc2ccc(C)c(C)c2)c1
 : ?	-28.5	-0.6%	-0.6%
[70] N#CCSc1nc2ccccc2o1
 : -0.8%	1.9	10.9%	-2.4%
[71] Cc1ccc(NCC(=O)N/N=C\C(Br)=C\c2ccccc2)cc1
 : -2.5%	-1.5	14.3%	-3.7%
[72] Cc1cccc(OCC(=O)Nc2nc3ccc([N+](=O)[O-])cc3s2)c1
 : -5.8%	1.5	-21.3%	-0.2%
[73] Cc1ccc(C2(CCN)CCOC(C(C)C)C2)cc1 (stereo not given)
 : 1.0%	-6.7	3.0%	-0.4%
[74] Cc1ccc(CNC(=O)C2(c3cccs3)CCOCC2)cc1
 : -0.8%	1.8	-0.3%	-3.6%&-4.9%
[75] N#CC1(NC(=O)COC(=O)CCN=C2NS(=O)(=O)c3ccccc32)CCCCC1
 : -0.3%	.	-11.8%	-0.5%
[76] O=C(c1cc(-c2ccc(Cl)cc2)on1)N1CCc2ccccc2C1
 : -2.5%	.	?	0.2%
[77] Cn1c(=NC(=O)COc2ccccc2)sc2cccc(F)c21
 : -2.3%	-0.8	23.2%	-49.7%
[78] CCOc1ccc(C(c2c(NC(=O)c3ccccc3)sc(C)c2C)N2CCN(CCO)CC2)cc1 (stereo not given)
 : 2.0%	0.8	-11.5%	22.2%
[79] CCn1c2ccccc2c2nnc(SCC(=O)c3ccccc3)nc21
 : -0.4%	-5.4	-19.5%	-3.9%
[80] Cc1ccccc1-c1noc(-c2ccccc2C(=O)N2CCCC2)n1
 : 5.1%	-6.4	7.5%	-15.1%
[81] Clc1ccc(-n2ncc3c(NCc4cccnc4)ncnc32)cc1Cl
 : ?	.	1.3%	-30.1%
[82] CC(Oc1ccccc1)C(=O)N(CCC1=CCCCC1)c1c(N)n(Cc2ccccc2)c(=O)[nH]c1=O (stereo not given)
 : ?	.	-2.0%	-8.8%
[83] COc1ccc(CCC(C)Nc2ccc(F)c(F)c2)cc1 (stereo not given)
 : 0.2%	-19.8	1.7%	0.9%
[84] O=c1sc(N2CCN(c3ccc(F)cc3)CC2)nc2ccsc12
 : -2.1%	-1.6	0.0%	-23.3%
[85] C=CCC1(Cl)C(=O)C(Cl)=C(N2CCN(C)CC2)C1(OC)OC (stereo not given)
 : -3.8%	1.7	-7.7%	-0.8%
[86] CCN(CC)C1=CC2=CC(=C(C#N)C#N)CCC2CC1 (stereo not given)
 : ?	6.7	?	-3.6%
[87] O=C(/C=C/C(Cl)(Cl)Cl)Nc1ccc(Cl)cc1
 : 2.9%	.	-10.8%	.
[88] Cn1c(N)c(C(=O)COC(=O)C2CCN(S(=O)(=O)c3cccs3)CC2)c(=O)n(C)c1=O
 : 1.9%	4.0	-12.6%	1.2%
[89] CCCN1CCN(S(=O)(=O)c2ccc(-n3cnnn3)cc2)CC1
 : -0.9%	.	-2.0%	-1.6%
